High-throughput results deposited in PubChem BioAssay by National Center for Advancing Translational Sciences (NCATS).
GLA inh pH 4.5: qHTS Assay for Inhibitors of Human alpha-Galactosidase at pH 4.5; 230,000 tested, under 10 active; Alpha-galactosidase A (Homo sapiens), P06280; purified enzyme, 4-MU-alpha-Gal fluorescence, pH 4.5; activity change, negative = inhibition, % at 105 µM; inconclusive = small, poorly fitted or top-dose-only inhibition, or a rising curve; inactive = flat fitted curve, though single readings scatter; no compound was filed as active;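 also: 0% = full activity with enzyme and -100% = basal without enzyme; dose as in the result columns while the protocol names 77 µM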
miR-21 FLuc: qHTS Assay for Modulators of miRNAs and/orActivators of miR-21. HeLa miR-21 FLuc reporter, luciferase, 48 h. Potency, µM (top dose mostly 38.3 µM), for the others: at the highest dose reporter change, positive = more light. AID 2288, 2010. 340,000 tested, under 10 active; active = well fitted rising curve with a large enough effect; inconclusive = small, poorly fitted or top-dose-only effect; inactive = no such curve, though single readings can be large or run the other way;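 also: % of control where 0% means no effect; miR-21 action dims this reporter so a rising signal means less miR-21 action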
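Using DMEM plus 10% FBS, HeLa miR-21-FLuc cells are incubated with test compounds (final up to about 40uM) for 48 hours; firefly luciferase signal is then imaged following reagent-mediated lysis.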
Rango dissoc inh: qHTS Assay for Inhibitors of RanGTP induced Rango (Ran-regulated importin-beta cargo) - Importin beta complex dissociation | AID 540253, 2011 | Biochemical FRET Rango-importin beta, RanGTP-induced dissociation | 340,000 tested, 0.071% active | Snurportin-1 (Homo sapiens) + GTP-binding nuclear protein Ran (Homo sapiens) + Importin … | Potency, µM (series often up to 46.1 µM), without a hit: top-dose activity change, negative = inhibition; active means falling FRET ratio curve, often poorly fitted, with flat reads before Ran was added; inconclusive means other falling curves, or compound fluorescence or quenching; inactive means flat or rising ratio curve;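 also: potency is read from the fitted curve at half-maximal effect; % of control where 0% means no effect; nearly all actives have a fitted effect of over 45% in size; -100% = wells without RanGTP and RCC1; the record marks most hits as doubtful in a second field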
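Compounds sat 5 min at room temperature with 0.1 uM Rango biosensor plus 0.25 uM importin beta, then FRET pre-read. RanGTP-RCC1 (0.6 uM Ran, 2mM GTP, 0.2 uM RCC1) added for 45 min, and the CFP/YFP post-read measured blocked complex dissociation.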
Rango complex inh: qHTS Assay for Inhibitors of Rango (Ran-regulated importin-beta cargo) - Importin beta complex formation; Rango CFP/YFP FRET sensor + importin beta, 45 min; Potency, µM (titrated, usually from 92.2 µM), for inactives: top-dose inhibition of complex formation; 340,000 tested, 0.031% active; active = rising FRET ratio curve, often small or poorly fitted; inconclusive = mostly compound fluorescence or quenching in the first reads; inactive = flat curves in all reads;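 also: potency is read from the fitted curve at half-maximal effect; 0% = DMSO wells and 100% = buffer wells lacking importin beta; nearly all actives have a fitted effect of over 15% in size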
Target sequence (Q14974 whole entry, looked up): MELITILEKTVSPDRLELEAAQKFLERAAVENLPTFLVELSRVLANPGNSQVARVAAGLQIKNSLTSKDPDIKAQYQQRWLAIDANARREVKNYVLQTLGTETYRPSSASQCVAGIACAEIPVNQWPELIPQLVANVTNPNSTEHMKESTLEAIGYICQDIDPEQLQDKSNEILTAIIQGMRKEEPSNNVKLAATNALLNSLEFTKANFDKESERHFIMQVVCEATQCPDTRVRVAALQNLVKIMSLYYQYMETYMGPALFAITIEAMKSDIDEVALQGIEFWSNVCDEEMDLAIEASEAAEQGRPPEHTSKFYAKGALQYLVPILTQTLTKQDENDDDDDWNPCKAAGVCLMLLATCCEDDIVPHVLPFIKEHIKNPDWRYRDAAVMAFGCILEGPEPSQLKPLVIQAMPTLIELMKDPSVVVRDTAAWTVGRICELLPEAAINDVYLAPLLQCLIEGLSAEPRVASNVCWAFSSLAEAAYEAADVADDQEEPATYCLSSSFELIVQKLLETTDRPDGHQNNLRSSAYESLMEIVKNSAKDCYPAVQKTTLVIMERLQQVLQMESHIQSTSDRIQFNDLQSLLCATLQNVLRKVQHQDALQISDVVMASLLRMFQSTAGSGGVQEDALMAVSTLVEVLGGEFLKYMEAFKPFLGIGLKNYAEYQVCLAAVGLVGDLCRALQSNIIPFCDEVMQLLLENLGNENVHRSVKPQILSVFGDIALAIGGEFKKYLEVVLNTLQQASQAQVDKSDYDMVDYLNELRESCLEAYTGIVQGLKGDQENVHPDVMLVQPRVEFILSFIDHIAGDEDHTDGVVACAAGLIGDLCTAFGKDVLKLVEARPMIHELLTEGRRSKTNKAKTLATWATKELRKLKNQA
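Inhibition scored from the CFP 486 nm/YFP 530 nm FRET ratio 45 min after adding 0.125 microM importin beta to 50 nM Rango biosensor preincubated 5 min with compound (room temperature, PBS with DTT, Tween-20, BSA). No-importin wells as positive control.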
* marks the source's active call; other numbers are inactive results; [ ] = dose if it differs, or a comment. These rows are one share of the data, so the mix of outcomes need not match the whole.

Screening C/C(=N\NC(=O)C1CC1)c1ccccc1Br returned miR-21 FLuc 0%, Rango dissoc inh 24% and Rango complex inh -1.3%.
`COc1ccc(N(CC(=O)NCc2ccco2)S(=O)(=O)c2c(C)nn(C)c2C)cc1` gave GLA inh pH 4.5 -3, miR-21 FLuc -6%, Rango dissoc inh -13% and Rango complex inh 0.6%.
For COc1cc(SC)ccc1C(=O)NCCCn1ccnc1 the results were miR-21 FLuc -2%, Rango dissoc inh -7% and Rango complex inh 1.2%.
For CC(C)=CC1C(C(=O)Nc2ccc(S(=O)(=O)N3CCOCC3)cc2)C1(C)C (centres undefined) the results were Rango dissoc inh 19% and Rango complex inh 1.4%.
`COc1ccc(COc2ccsc2C(=O)Nc2ccc(Cl)c(Cl)c2)cc1` gave GLA inh pH 4.5 -23, miR-21 FLuc -10%, Rango dissoc inh 11% and Rango complex inh inconclusive.
`Cc1cccc(OCC(=O)Nc2ccc3nc(C)sc3c2)c1` gave GLA inh pH 4.5 8, miR-21 FLuc -13%, Rango dissoc inh 1% and Rango complex inh -1.2%.
Screening CN(CC(=O)Nc1ccccc1Cl)C(=O)c1ccc(N2C(=O)CCC2=O)cc1 returned Rango dissoc inh 29% and Rango complex inh 2.9%.
`COc1cccc(C(=O)Cn2c(NCCO)nc3ccccc32)c1` gave GLA inh pH 4.5 0, miR-21 FLuc 2%[7.66 µM], Rango dissoc inh -4% and Rango complex inh 0.2%.
Screening COc1ccc(-c2onc3ccc(C(=O)/C=C/N(C)C)cc23)cc1 returned miR-21 FLuc 4%, Rango dissoc inh inconclusive and Rango complex inh inconclusive.
Screening COc1ccc(Cc2nc(-c3ccc(-n4cccc4)cc3)no2)cc1OC returned GLA inh pH 4.5 3, miR-21 FLuc 12%, Rango dissoc inh 0% and Rango complex inh -3.0%.
`O=C(CN1C(=O)c2cccc3cccc1c23)N1CCN(c2ccc(F)cc2)CC1` gave GLA inh pH 4.5 5, miR-21 FLuc 3%, Rango dissoc inh inconclusive and Rango complex inh inconclusive.
`CCN(CC)C(=O)c1cn(CCC#N)nc1-c1ccc2c(c1)OCCO2` gave GLA inh pH 4.5 -17, miR-21 FLuc -4%, Rango dissoc inh -6% and Rango complex inh -1.9%.
CN(CCCNC(=O)C1CCN(S(=O)(=O)N2CCC3(CC2)OCCO3)CC1)Cc1ccccc1 was read as GLA inh pH 4.5 -6, miR-21 FLuc -4%, Rango dissoc inh 1% and Rango complex inh -0.9%.
Screening Cc1cnc(=O)[nH]c1SCc1ccccc1F returned miR-21 FLuc 0%, Rango dissoc inh -7% and Rango complex inh 2.8%.
Screening Cc1ccc2c(cnn2C(=O)CCCC(=O)NCc2ccc(F)cc2)c1 returned miR-21 FLuc 2%, Rango dissoc inh -13% and Rango complex inh 5.5%.
`CCOC(=O)c1c(C)[nH]c(C(=O)C(C)Sc2ccc(Cl)cc2)c1C` (centres undefined) gave GLA inh pH 4.5 0, miR-21 FLuc -26%, Rango dissoc inh -2% and Rango complex inh 3.2%.
Screening CC(C)C(=O)Nc1nnc(SCC(=O)NC2CCCC2)s1 returned miR-21 FLuc -3%, Rango dissoc inh 24% and Rango complex inh 2.2%.
For Cc1ccc2nc(C)c(C(=O)N/N=C/c3cccc([N+](=O)[O-])c3)cc2c1 the results were GLA inh pH 4.5 5, miR-21 FLuc -18%, Rango dissoc inh 0% and Rango complex inh 0.7%.
For COC(=O)c1cc2oc(C)cc2n1CC(=O)Nc1cc(C)cc(C)c1 the results were GLA inh pH 4.5 -2, miR-21 FLuc -5%, Rango dissoc inh -1% and Rango complex inh -0.2%.
Screening O=C(c1c[nH]c2ccccc12)N1CCOCC1 returned GLA inh pH 4.5 -11, miR-21 FLuc 0%, Rango dissoc inh 27% and Rango complex inh -1.0%.
For CCc1ccc[n+](-c2nc3ccccc3nc2C(=C=[N-])C#N)c1 the results were GLA inh pH 4.5 2, miR-21 FLuc -4%, Rango dissoc inh inconclusive and Rango complex inh inconclusive.
`C=C(C)C1CCC(C)=C1CC(C)(C)/C=N\n1cnnc1` (centres undefined) gave GLA inh pH 4.5 -4, miR-21 FLuc 8%, Rango dissoc inh 10% and Rango complex inh -0.4%.
O=C(CN1CCOCCOCCOCCOCC1)Nc1ccccc1 was read as GLA inh pH 4.5 -4, miR-21 FLuc -32%, Rango dissoc inh -9% and Rango complex inh inconclusive.
`Cc1ccc(C)c(OCC(=O)Nc2ccc(S(=O)(=O)Nc3onc(C)c3C)cc2)c1` gave miR-21 FLuc -3%, Rango dissoc inh 16% and Rango complex inh -2.7%.
For CCN(Cc1ccc(O)cc1)CC1CCCN(CCc2cccc(F)c2)C1 (centres undefined) the results were miR-21 FLuc -8%, Rango dissoc inh -10% and Rango complex inh -3.5%.
For CCN1CCCC1CNC(=O)C1c2ccccc2C(=O)N(CCOC)C1c1ccc(F)cc1 (centres undefined) the results were GLA inh pH 4.5 8, miR-21 FLuc -9%, Rango dissoc inh 10% and Rango complex inh -3.3%.
O=C(c1ccncc1)N1CCN(S(=O)(=O)c2ccccc2Br)CC1 was read as Rango dissoc inh 20% and Rango complex inh -0.2%.
For CC(=O)c1ccc(S(=O)(=O)NC2CC(=O)N(c3ccc4c(c3)OCCO4)C2)cc1 (centres undefined) the results were Rango dissoc inh 1% and Rango complex inh -4.6%.
Cc1ccc(S(=O)(=O)N2CCSC2=Nc2ccccc2)cc1 was read as GLA inh pH 4.5 4 and miR-21 FLuc -1%.
For CC(Oc1ccccc1)C(=O)Nc1ccc(S(=O)(=O)Nc2nccs2)cc1 (centres undefined) the results were miR-21 FLuc -1%, Rango dissoc inh -4% and Rango complex inh 0.7%.
For COCCn1nnnc1C(c1cc2cc(OC)ccc2[nH]c1=O)N1CCC(Cc2ccccc2)CC1 (centres undefined) the results were GLA inh pH 4.5 -18, miR-21 FLuc -1%, Rango dissoc inh -13% and Rango complex inh inconclusive.
CC(C)NCC(O)COC1C2CC3CC(C2)CC1C3 (centres undefined) was read as GLA inh pH 4.5 5, miR-21 FLuc -9%, Rango dissoc inh 23% and Rango complex inh -2.7%.
Cc1cc(S(=O)(=O)NCCCN2CCOCC2)c(C)cc1Cl was read as miR-21 FLuc -9%, Rango dissoc inh 2% and Rango complex inh 3.7%.
`CN(CCCC1CCCC1)C(=O)c1cc(COc2ccc(F)c(F)c2)on1` gave miR-21 FLuc -7%, Rango dissoc inh -13% and Rango complex inh -4.9%.
For COc1ccc(CNC(=O)C(=O)NCC2OCCN2S(=O)(=O)c2ccc(F)cc2)cc1 (centres undefined) the results were miR-21 FLuc -33%, Rango dissoc inh 20% and Rango complex inh -2.9%.
`CCN(CC)S(=O)(=O)c1cc(C(=O)n2cccn2)c(Cl)cc1Cl` gave GLA inh pH 4.5 3, miR-21 FLuc -2%, Rango dissoc inh -5% and Rango complex inh -1.7%.
CCCCn1c(=O)c(C(C)=O)c(O)c2ccccc21 was read as GLA inh pH 4.5 1, miR-21 FLuc 1%, Rango dissoc inh inconclusive and Rango complex inh -2.9%.
`CCOc1ccc(OCCCC(=O)NCCOc2ccccc2OC)cc1` gave miR-21 FLuc -2%, Rango dissoc inh -2% and Rango complex inh -4.3%.
Cc1ccc(NC(=O)CN2CCCC2)cc1 was read as miR-21 FLuc -7%, Rango dissoc inh 5% and Rango complex inh -0.2%.
Screening O=C(COC(=O)/C=C/c1ccccc1)NNC(=O)c1ccccc1F returned Rango dissoc inh 0% and Rango complex inh -1.7%.
For CCCCn1c(N)c(N(CCOC)C(=O)CCNC(=O)c2ccc(Cl)cc2)c(=O)[nH]c1=O the results were Rango dissoc inh -10% and Rango complex inh inconclusive.
Screening Cc1c(Cl)cccc1NC(=S)N1CCN(C(=O)c2ccco2)CC1 returned miR-21 FLuc 13%, Rango dissoc inh -9% and Rango complex inh -0.5%.
N#C/C(=C\c1c(N2CCCCCC2)nc2ccccn2c1=O)C(N)=O was read as miR-21 FLuc -9%, Rango dissoc inh -22% and Rango complex inh inconclusive.
Screening O=[N+]([O-])c1ccc(CN2CCN(c3ncccn3)CC2)cc1 returned miR-21 FLuc 0%, Rango dissoc inh -9% and Rango complex inh -2.5%.
For Cc1cc(F)ccc1S(=O)(=O)N1CCCCC1CCNC(=O)C(=O)NCCN1CCOCC1 (centres undefined) the results were Rango dissoc inh 8% and Rango complex inh -3.2%.
`CC(C)[C@H](NC(=O)c1ccccc1F)C(=O)OCC(=O)Nc1sccc1C(N)=O` gave Rango dissoc inh -15% and Rango complex inh -0.9%.
Screening CCCN(CCC)CCNC(=O)CCC(=O)Nc1ccc2nc(N3CCN(C)CC3)cc(C)c2c1 returned GLA inh pH 4.5 7, miR-21 FLuc -8%, Rango dissoc inh -29% and Rango complex inh inconclusive.
COc1cccc(N=CC=C2OC(C)(C)C(C)(C)O2)c1 was read as GLA inh pH 4.5 -8, miR-21 FLuc -34%, Rango dissoc inh 7% and Rango complex inh 0.0%.
For CN(CC(=O)Nc1ccc(S(=O)(=O)N2CCCC2)cc1)CC(=O)Nc1ccc(F)c(F)c1F the results were GLA inh pH 4.5 -3, miR-21 FLuc 2%, Rango dissoc inh -9% and Rango complex inh 2.9%.
O=c1cc(N2CCCCC2)c(-c2ccccc2)nn1Cc1ccc(Cl)cc1Cl was read as GLA inh pH 4.5 -21, miR-21 FLuc 7%, Rango dissoc inh -23% and Rango complex inh inconclusive.
Screening O=C1CCCc2nc(N3CCN(C(c4ccccc4)c4ccccc4)CC3)ncc21 returned GLA inh pH 4.5 -13, miR-21 FLuc 10%, Rango dissoc inh 4% and Rango complex inh 2.5%.
For O=C(COc1ncnc2ccccc12)NC1CCS(=O)(=O)C1 (centres undefined) the results were GLA inh pH 4.5 9, miR-21 FLuc -1%, Rango dissoc inh 23% and Rango complex inh -1.4%.
For O=C(c1ccco1)N1CCN(c2ncnc3c2[nH]c2ccccc23)CC1 the results were GLA inh pH 4.5 -6 and miR-21 FLuc 21%.
CCCn1c(SCC(=O)N2CCN(S(=O)(=O)c3ccc(Cl)cc3)CC2)n[nH]c1=O was read as GLA inh pH 4.5 0, miR-21 FLuc -3%, Rango dissoc inh 25% and Rango complex inh 1.1%.
For Cc1ccc(/C=C(\NC(=O)c2ccc(C)cc2)c2nc(=S)[nH][nH]2)cc1 the results were GLA inh pH 4.5 0, miR-21 FLuc -4%, Rango dissoc inh -29% and Rango complex inh inconclusive.
For Cc1cc(NC(=O)COc2ccc(C(C)(C)C)cc2)no1 the results were miR-21 FLuc -9%, Rango dissoc inh 0% and Rango complex inh 2.5%.
`COc1ccc(Cc2nc3ccc(C(=O)N4CCC[C@H]4CO)cc3o2)cc1` gave miR-21 FLuc -4%, Rango dissoc inh 9% and Rango complex inh inconclusive.
Screening O=C(Nc1ccccc1F)Nc1cc(Cl)ccc1-n1cncn1 returned miR-21 FLuc -2%, Rango dissoc inh -11% and Rango complex inh 6.1%.

An excerpt from above in order of length of the SMILES, rising:
COc1cccc(N=CC=C2OC(C)(C)C(C)(C)O2)c1 was read as GLA inh pH 4.5 -8, miR-21 FLuc -34%, Rango dissoc inh 7% and Rango complex inh 0.0%.
N#C/C(=C\c1c(N2CCCCCC2)nc2ccccn2c1=O)C(N)=O was read as miR-21 FLuc -9%, Rango dissoc inh -22% and Rango complex inh inconclusive.
`COc1ccc(Cc2nc3ccc(C(=O)N4CCC[C@H]4CO)cc3o2)cc1` gave miR-21 FLuc -4%, Rango dissoc inh 9% and Rango complex inh inconclusive.
Screening O=C1CCCc2nc(N3CCN(C(c4ccccc4)c4ccccc4)CC3)ncc21 returned GLA inh pH 4.5 -13, miR-21 FLuc 10%, Rango dissoc inh 4% and Rango complex inh 2.5%.
`CC(C)[C@H](NC(=O)c1ccccc1F)C(=O)OCC(=O)Nc1sccc1C(N)=O` gave Rango dissoc inh -15% and Rango complex inh -0.9%.
